# Compound activity: PubChem, National Center for Advancing Translational Sciences (NCATS)
# Bst PK mod – modulators of Bacillus stearothermophilus pyruvate kinase; partly purified Bacillus stearothermophilus pyruvate kinase, luminescence ATP production; ribose 5-phosphate activator present at AC10; Potency, µM; actives 1.2% (n = 51,000); AID 361; in the data active means potency below about 11 µM; inconclusive means mostly about 12 µM to 25 µM; inactive means weaker than that;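 the screen sought inhibitors and activators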;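 further: potency means the concentration at half of the fitted maximal effect; scaled between full activation by ribose 5 phosphate and full inhibition by luteolin; about four in five hits inhibit and the cells do not say which; series up to 57 µM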
# TsaE inh – inhibitors of E. coli YjeE (TsaE); P0AF67; Potency, µM; AID 605; actives 0.05% (n = 71,000); purified YjeE, fluorescence polarisation of a bound ADP probe; active = well fitted falling curve; inconclusive = weaker or top-dose-only fall, or a rising curve; inactive = flat or poorly fitted curve;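 further: top concentration of the series not given in the record; excess ADP was the control for the full effect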
#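 Fluorescence polarization of a BODIPY Texas Red–ADP probe (2 uM) bound to purified YjeE (10 uM) was read after 15 min room-temperature incubation with compounds. Loss of polarization marks inhibitors; ADP serves as titrated control.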
# * = called active by the depositor; i = inactive; x = no result given. Not all compounds are listed; count on the stated rates, not on these rows.
SMILES	Bst PK mod	TsaE inh
Cc1occc1-c1nc(-c2ccncc2)no1	x	i
Cc1cccc(-c2noc(CCC(=O)NCc3ccccc3)n2)c1	>57	i
Cc1cc(C)c(C)c(OCC(=O)NCCN(C)C)c1	x	i
COc1ccc(Cn2nnnc2CN(Cc2cc3ccc(C)cc3[nH]c2=O)C2CCCC2)cc1	>57	i
O=C(NC1CCCCC1)C(c1cccs1)N(Cc1cccs1)C(=O)c1ccco1 (stereo not given)	>57	i
O=C(O)c1nc2nc(Cl)c(Cl)nc2[nH]1	x	i
Cc1cc(C(=O)Nc2ccc(N3CCOCC3)cc2)c2ccccc2n1	>57	i
Nc1nc2c3ccccc3nc(Cc3ccccc3)n2n1	>57	i
O=C(CCCCCn1c(=S)[nH]c2cc3c(cc2c1=O)OCO3)N1CCN(Cc2ccccc2)CC1	>57	i
CCC(C)[C@H](NC(=O)Nc1ccc(C(C)=O)cc1)C(=O)OC (stereo not given in full)	>57	i
Cc1ccccc1OCc1nc(-c2ccc(NC(=O)c3ccco3)cc2)no1	x	i
O=C(CNC1CCCCCC1)Nc1ccc(S(=O)(=O)NC2CC2)cc1	>57	i
CCCCCc1ccc(-c2ccc(=O)[nH]n2)cc1	>25.6	x
Fc1cccc(Cl)c1Cn1nnc2c(N3CCC4(CC3)OCCO4)ncnc21	>57	i
CCN(CC)S(=O)(=O)c1ccc(NC2CCCc3ccccc32)nc1 (stereo not given)	>57	i
O=C1c2ccccc2C(Nc2ccc(S(=O)(=O)N3CCCCC3)cc2)N1c1ccccn1 (stereo not given)	x	i
COC(=O)c1sccc1NC(=O)Cn1cnc2c1c(=O)n(C)c(=O)n2C	>57	i
Cn1c(Cn2c(=O)sc3ccccc32)nnc1SCC(=O)N1CCc2ccccc21	x	i
COc1ccc(-c2cc(C(=O)Nc3ccccc3SC)no2)cc1OC	>57	i
COC(=O)c1ccc(NC2=CC(=O)CC(C)(C)C2)cc1	>57	i
COC(=O)CN(c1ccc(OC)cc1)S(=O)(=O)c1c(C)noc1C	>57	i
O=C1CSC2(CCCCC2)N1CCO	>57	i
COC(=O)c1cccc(Oc2nc3c(c(=O)n(C)c(=O)n3C)n2C(C)C)c1	x	i
COc1ccc(-c2cc(C(=O)N3CCOCC3)no2)cc1OC	>57	i
CCOC(=O)NC(=O)CSc1nnnn1-c1ccc(C)cc1	>57	i
CCn1c(COc2cccc3cccnc23)nnc1SCC(=O)O	x	i
Cc1ccc(NC(=O)c2cccc(N3C(=O)CCC3=O)c2)nc1	>57	i
CN1CCN(S(=O)(=O)c2ccc(NC(=O)Cc3cccs3)cc2)CC1	>57	i
CC(C)OCCCNC(=O)c1cc2c(=O)n(C)c3ccccc3c2n1C	x	i
CCC(c1nnc(SCC(=O)Nc2ccc(C(=O)Nc3ccccc3OC)cc2)o1)N(C)C (stereo not given)	>57	i
COCCn1c(=O)c2c(nc3n2CCN3c2ccc(C)cc2)n(C)c1=O	>57	i
CC(=O)N1[C@H](C)C=C[C@]1(Cc1ccccc1)C(=O)NCc1cc(F)cc(C(F)(F)F)c1	x	i
CC1CCN(C(=O)C(NS(=O)(=O)c2cccc3nsnc23)c2ccccc2)CC1 (stereo not given)	>57	i
CCCN1CCN(C(=O)Cn2ncc3ccccc32)CC1	x	i
Cc1ccccc1C(=O)NCCN=C1NS(=O)(=O)c2ccccc21	x	i
CC(=O)Oc1cc(OC(C)=O)c2c(C)cc(=O)oc2c1	x	i
CCOC(=O)c1[nH]c(C)c(/C(O)=C2\C(=O)C(=O)N(CCCN(C)C)C2c2cccnc2)c1C (stereo not given)	>57	i
CC(C)Oc1ccc(CSc2nnc3n(C)c(=O)c4c5c(sc4n23)CCCC5)cc1	>57	i
CCC(C)C(=O)Nc1c2c(nc3c1CCC3)CCCC2 (stereo not given)	>57	i
c1coc(-c2nn3c(Cn4nnc5ccccc54)nnc3s2)c1	>57	i
COc1ccc(CC(=O)Nc2ccc(-c3noc(-c4cccc(OC)c4)n3)cc2)cc1	>57	i
CCOC(=O)N1CCN(C(=O)Cc2ccc(-n3c(=O)[nH]c4ccccc4c3=O)cc2)CC1	>57	i
COc1ccc2nc(SCc3nc(N)nc(Nc4ccccc4)n3)[nH]c2c1	x	i
O=C(COC(=O)c1ccc[nH]c1=O)c1ccc(Cl)s1	>57	i
COc1ncc2nc(-c3ccc(Cl)cc3)c(=O)n(-c3ccccc3)c2n1	x	i
COCCNC(=O)C(c1ccc(C)o1)N(Cc1ccc(OC)cc1)C(=O)Cn1nnc2ccccc21 (stereo not given)	>57	i
O=C(O)CCCC(=O)NCCc1cccc(Cl)c1	>57	i
Cc1ccc(NC(=O)N2C(=O)C3(OCCO3)c3ccccc32)cc1	>57	i
CCC(C)c1ccc(NC(=O)c2cccnc2)cc1 (stereo not given)	x	i
O=C(COC(=O)c1ccco1)Nc1nc2ccccc2s1	i	i
CC(C(=O)N1CCCc2c1c(=O)oc1ccc(O)cc21)N1CCc2ccccc2C1 (stereo not given)	>57	i
CCC(NC(C)C)C(O)c1ccc(O)c(O)c1 (stereo not given)	>25.6	x
O=C(Nc1cccc(F)c1)N1CC[C@@]2(CCCN(C(=O)c3cnccn3)C2)C1	x	i
CCC(C)c1c(O)nc(SCc2ccccc2)[nH]c1=O (stereo not given)	>11.4	i
Cc1ccc(S(=O)(=O)N2CCN(S(=O)(=O)c3ccc4c(c3)OCCO4)CC2)cc1	>57	i
O=C(Nc1cnn(Cc2ccc(F)cc2)c1)c1cnccn1	>57	i

# (listing goes on)
SMILES	Bst PK mod	TsaE inh
COc1ccc(NC(=O)N(C2CCCCC2)C(C)c2cccnc2)c(OC)c1 (stereo not given)	>57	i
Cc1[nH]c2ccccc2c(=O)c1CN1CCCCC1	x	i
O=C1C2CCCN2C(c2ccccc2)N1c1ccc(F)cc1 (stereo not given)	x	i
O=C(c1ccc(Cn2c(=O)[nH]c3ccccc3c2=O)cc1)N1CCN(c2ccccn2)CC1	x	i
COc1cccc(N2C(=O)N(c3ccccc3Cl)C3CS(=O)(=O)CC32)c1 (stereo not given)	>57	i
CCOC(=O)c1[nH]c(COC(=O)CCCOc2ccccc2)c(C(=O)OCC)c1C	>57	i
CCOC(=O)C1[C@H]2C(=O)N(C(C)c3ccc(OC)cc3)C[C@]23C=C[C@H]1O3 (stereo not given in full)	i	i
COc1cccc(NC(=O)CC2(CC(=O)O)CCCC2)c1	>57	i
CCOC(=O)C1=C(C)NC(=O)NC1c1ccc(N(C)C)cc1 (stereo not given)	x	i
COC(=O)N1CCC2(CCN(Cc3nccs3)CC2)CC1	x	i
CCOc1cc(C(=O)NC(C)COC)cc(OCC)c1OCC (stereo not given)	x	i
COC(=O)[C@@]1(Cc2ccccc2)[C@H]2c3cc(C(=O)N4CCCC4)n(Cc4ccccn4)c3C[C@H]2CN1C(=O)c1ccccc1	x	i
O=C(OCC(=O)N1CCN(c2ccccc2)CC1)c1ccc2ncsc2c1	>57	i
OCc1ccccc1CNCc1ccccc1	>57	i
COc1ccc(C(C)=O)cc1COC(=O)Cc1n[nH]c(=O)c2ccccc12	>57	i
Cc1cccc2[nH]c3c(=O)n(CCN4CCNCC4)cnc3c12	x	i
Cn1c(=O)c2c(ncn2CC(=O)Nc2ccccc2Sc2ccccc2)n(C)c1=O	>57	i
CC1CCN(C(=O)C2c3ccccc3C(=O)N3CCc4ccccc4C23)CC1 (stereo not given)	>57	i
CC1=C(C(=O)OC(C)C)C(C2CC=CCC2)NC(=O)N1 (stereo not given)	x	i
Cn1cnnc1SCc1ccc(C#N)cc1Cl	x	i
CCOC(=O)c1ccc(N2C(=O)c3n[nH]c(C)c3C2c2ccccn2)cc1 (stereo not given)	x	i
O=C(c1cccc(F)c1)N1CCC2(CCCN(c3ccccc3)C2)CC1	x	i
CC1CCN(CCCn2c(=S)[nH]c3ccc(N4CCOCC4)cc3c2=O)CC1	>57	i
Cc1ccc(N2CCN(c3cc(C)nc4c5c(C)cc(C)nc5nn34)CC2)cc1	>57	i
CCC(C)(C)n1nnnc1C(C(C)C)N1CCSCC1 (stereo not given)	>57	i
C[C@H](NC(=O)OC(C)(C)C)c1nnc(SCC(N)=O)o1	>57	i
CCCn1c(-c2ccc(F)cc2)nc2c(NCCCN(CC)CC)nc(C)nc21	x	i
C[C@@H](C(=O)O)c1ccc(N2Cc3ccccc3C2=O)cc1	x	i
O=C(NCc1ccco1)C(c1cccs1)N(C(=O)C1COc2ccccc2O1)c1cccc(O)c1 (stereo not given)	>57	i
O=C(Nc1ccc(Cl)cc1)N1CC=CCC1	x	i
CCCCN(CCO)CCCC	x	i
Cc1cccc(Nc2ccccc2C(=O)O)c1C	>11.4	i

# The list goes on, starting with the last 5 of the part before.
SMILES	Bst PK mod	TsaE inh
C[C@@H](C(=O)O)c1ccc(N2Cc3ccccc3C2=O)cc1	x	i
O=C(NCc1ccco1)C(c1cccs1)N(C(=O)C1COc2ccccc2O1)c1cccc(O)c1 (stereo not given)	>57	i
O=C(Nc1ccc(Cl)cc1)N1CC=CCC1	x	i
CCCCN(CCO)CCCC	x	i
Cc1cccc(Nc2ccccc2C(=O)O)c1C	>11.4	i
CC(=O)Nc1nc(=S)ss1	>57	i
O=C(CN1C(=O)COc2ccccc21)N1CCc2ccccc21	>57	i
COC(=O)c1ccccc1NC(=O)CSc1nnc(-c2ccncc2)o1	>25.6	x
O=C(NCc1ccc2c(c1)OCO2)c1ccc(C2SCC(=O)N2Cc2ccco2)cc1 (stereo not given)	>57	i
COc1ccc(CCNCc2csc3nc4ccccc4n23)cc1OC	>57	i
O=C(c1n[nH]c2c1CCCC2)n1ccnc1	>57	i
O=C(CCn1c(=S)[nH]c2ccccc2c1=O)NCC1CCCO1 (stereo not given)	>57	i
COc1cc(-c2nnc(COC(=O)CSc3cc(C)c4ccccc4n3)o2)cc(OC)c1OC	>57	i
COc1ccccc1OCc1nnc(SCC(=O)N2CCCCC2)n1-c1ccccc1	>57	i
CCCn1nc(NS(=O)(=O)c2ccccc2)c2cc3ccccc3nc21	>57	i
COCCn1c(-c2ccco2)nc2nc3ccccc3nc21	>57	i
COc1ccc(C(=O)N2CCC3(CCCN(c4ncccn4)C3)CC2)cc1	x	i
O=C(O)[C@H]1[C@H](C(=O)O)[C@H](C(=O)O)C[C@@H]1C(=O)O	x	i
CCCc1nc(SCC(=O)Nc2cc(C)on2)c2ccccc2n1	>57	i
COc1ccc(OCc2nnc3n2N=C(c2ccc(Br)cc2)CS3)cc1	x	i
COCC(=O)N(Cc1ccco1)c1nnc(C2CCOC2)s1 (stereo not given)	>57	i
Cn1c(=O)n(Cc2ccco2)c(=N)c2c3c(sc21)CCC3	x	i
CS(=O)(=O)N1CCC(C(=O)Nc2ccccc2Sc2ccccc2)CC1	x	i
O=C(Cn1c(=O)n(CCC(=O)N2CCc3ccccc3C2)c(=O)c2ccccc21)NCC1CCCO1 (stereo not given)	>57	i
COc1ccc(-c2ccc(-c3noc(-c4ccccc4)n3)c(OC)n2)cc1	>11.4	i
Cc1ccccc1Cn1c(=N)n(CC(=O)c2ccco2)c2ccccc21	>57	i
CCOC(=O)C1CCN(c2c(N3CCN(c4ccccc4OC)CC3)c(=O)c2=O)CC1	x	i
CCOC(=O)C(C)Sc1nnc(-c2ccccc2O)n1-c1ccc(C)cc1 (stereo not given)	>57	i
N#Cc1cc2c(nc1SCC(=O)Nc1nccs1)CCCCC2	x	i
Cc1cc(NCc2ccco2)nc2cc(O)ccc12	x	i
COC(=O)c1[nH]c2ccccc2c1NS(=O)(=O)c1ccc(OC)cc1OC	>57	i
CC1CCN(CC(=O)Nc2ccccc2C#N)CC1	>57	i
C[C@@H]1C[C@H](OC(=O)c2ccccc2O)CC(C)(C)C1	x	i
CC(=O)OC[C@H]1O[C@@H](n2ncc(=O)[nH]c2=O)[C@H](OC(C)=O)[C@@H]1OC(C)=O	>11.4	x
O=C(NC1CCCCC1)C1CCCN1C(=O)NCc1ccccc1 (stereo not given)	>57	i
Cc1cc(C)n(-c2nc(NCC3CCCO3)c3c4c(sc3n2)COC(C)(C)C4)n1 (stereo not given)	>57	i
CC(NS(=O)(=O)c1ccc(OCC(=O)N2CCOCC2)c(Cl)c1)c1ccccc1 (stereo not given)	>57	i
O=C(O)C[C@@H](C(=O)O)c1ccccc1[N+](=O)[O-]	x	i
COC(=O)c1c[nH]n2c(=O)c(Cc3ccc(F)cc3Cl)c(C)nc12	>57	i
COc1ccccc1-c1nc(NCCNC(C)=O)c2ccccc2n1	x	i
COc1cccc(OC)c1C(=O)N1CCN(Cc2ccccc2C(F)(F)F)CC1	>57	i
CC1=C(C#N)C(C)C2=C(CC(C)(C)CC2=O)N1 (stereo not given)	x	i
Cn1c(=O)[nH]c(=O)c2c1nc(SCCN1CCCCC1)n2Cc1ccccc1	>57	i
COC(=O)Cn1cc(C(=O)c2cccs2)c2ccccc21	x	i

# Rewritten with the structure last: entries from further up.
Bst PK mod | TsaE inh | molecule
x | i | CC1=C(C#N)C(C)C2=C(CC(C)(C)CC2=O)N1 (stereo not given)
>57 | i | COc1cccc(OC)c1C(=O)N1CCN(Cc2ccccc2C(F)(F)F)CC1
